Assay outcomes deposited in PubChem BioAssay by National Center for Advancing Translational Sciences (NCATS).
MARV entry inh: Marburg virus entry inhibition. Potency, µM (series often up to 37.8 µM), without a hit: top-dose activity change, negative = inhibition, actives largely listed as inhibitors. Marburg virus pseudotyped entry inhibition, cell reporter; control for the full effect not named in the record; about a third of the inactives were read at about 46 µM. 1.8% of 300,000 active; active = well fitted inhibition curve with a large enough effect; inconclusive = small, poorly fitted or top-dose-only effect, or effect the other way; inactive = flat fitted curve, though single readings scatter; tested in HEK293 cells; about a fifth of its hits are not listed in these tables; also: % is scaled to controls: 0 for no effect and ±100 for the full control effect; luciferase read-out
Cruzain noTriton: blocks cruzain activity in detergent-free assay; purified cruzain, Z-FR-AMC fluorescence, no detergent; 2.3% of 200,000 active; Potency, µM, for the others: max response, negative = inhibition, usual class: inhibitors; P25779; active = well fitted curve in the direction sought with a large enough effect; inconclusive = small, poorly fitted or top-dose-only effect, or another doubt; inactive = no such curve, though single readings can be large; an effect the other way counts as inactive or inconclusive;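 also: plate controls were enzyme without inhibitor for no effect and buffer without enzyme for full effect; nearly all actives have a fitted effect of over 40% in size; top concentration of the series not given in the record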
Target sequence (P25779 123-467 limits assumed): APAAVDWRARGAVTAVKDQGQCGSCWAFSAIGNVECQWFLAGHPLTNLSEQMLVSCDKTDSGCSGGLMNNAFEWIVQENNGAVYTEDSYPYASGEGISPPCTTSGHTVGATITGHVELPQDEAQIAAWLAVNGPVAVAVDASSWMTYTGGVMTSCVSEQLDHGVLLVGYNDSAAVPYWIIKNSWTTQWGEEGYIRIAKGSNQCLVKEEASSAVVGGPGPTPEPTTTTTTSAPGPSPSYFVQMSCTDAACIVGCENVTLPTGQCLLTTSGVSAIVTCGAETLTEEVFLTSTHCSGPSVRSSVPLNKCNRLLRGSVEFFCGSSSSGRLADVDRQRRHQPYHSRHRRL
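Detergent-free condition (0.00005% Triton X-100) in acetate buffer pH 5.5 with DTT. 1.5 nM enzyme and compound were pre-mixed 15 min, then 2 uM Z-FR-AMC substrate added; reaction progress from fluorescence change between first and third reads (60 s).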
RE007 growth inh: less growth of the S. pombe RE007 Vpr strain; AID 651644; 0.21% of 360,000 active; S. pombe RE007 Vpr strain, BacTiter-Glo ATP luminescence, 24 h; control for the full effect not named in the record; Potency, µM (top dose mostly 92.2 µM), inactives show at the top dose activity change, negative = less growth; active = well fitted falling curve with a large enough effect; inconclusive = small, poorly fitted or top-dose-only effect; inactive = no such curve, though single readings can be large or run the other way;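 also: % is scaled to controls: 0 for no effect and ±100 for the full control effect; nearly all actives have a fitted effect of over 50% in size; the assay follows cell death caused by Vpr and the record does not say whether a fall means rescue or toxicity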
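Fission yeast RE007 carrying one integrated HIV-1 vpr copy, seeded at OD 0.01 in PMG+AL medium with 23 nL pinned compound. Grown 24 h at 30 degrees; viability read by BacTiter-Glo luminescence after 5 min.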
Cruzain inh Det: blocks cruzain activity in presence of Triton detergent. P25779. purified cruzain, Z-FR-AMC fluorescence, 0.01% Triton. Potency, µM, without a hit: max response, negative = inhibition, usual class: inhibitors. 0.43% of 200,000 active. AID 1478; active = well fitted curve in the direction sought with a large enough effect; inconclusive = small, poorly fitted or top-dose-only effect, or another doubt; inactive = no such curve, though single readings can be large; an effect the other way counts as inactive or inconclusive;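 also: plate controls were neutral wells for no effect and buffer without enzyme for full effect; nearly all actives have a fitted effect of over 40% in size; top concentration of the series not given in the record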
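Cruzain (1.5 nM) preincubated 15 min at RT with compound in 100 mM sodium acetate pH 5.5, 5 mM DTT, 0.01% Triton X-100. Reaction started with 2 uM Z-FR-AMC; AMC fluorescence (ex 360/em 450 nm) change over 60 s gave rate.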
StopGo reporter: FMDV 2A StopGo reporter, luciferase signal; human cells with a luciferase reporter of 2A StopGo recoding; control for the full effect not named in the record; Potency, µM (top dose mostly 57.9 µM), for inactives: top-dose signal change, negative = less light; AID 1159524; 1.2% of 410,000 active; active = well fitted falling curve with a large enough effect; inconclusive = small, poorly fitted or top-dose-only effect; inactive = no such curve, though single readings can be large or run the other way; tested in HEK293T cells; also: % is scaled to controls: 0 for no effect and ±100 for the full control effect; nearly all actives have a fitted effect of over 45% in size; luciferase light after 4 h
Lassa entry inh: inhibitors of Lassa virus binding or cell entry. Lassa virus pseudotype entry inhibition, cell reporter; control for the full effect not named in the record. Potency, µM (titrated, usually from 37.9 µM), inactives show top-dose activity change, negative = inhibition, actives largely listed as inhibitors. 1.2% of 300,000 active; active means well fitted inhibition curve with a large enough effect; inconclusive means small, poorly fitted or top-dose-only effect, or effect the other way; inactive means flat fitted curve, though single readings scatter; tested in HEK293 cells; also: % is scaled to controls: 0 for no effect and ±100 for the full control effect; nearly all actives have a fitted effect of over 50% in size; luciferase read-out
NS1 function inh: inhibitors of influenza NS1 protein function | 0.4% of 270,000 active | Potency, µM (series often up to 46.1 µM), for inactives: top-dose activity, positive = more growth | S. cerevisiae slowed by influenza A NS1, growth recovery by OD600; also: actives are rising curves; nearly all actives have a fitted effect of over 50% in size
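Growth recovery, yeast-based: influenza A NS1 expressed in S. cerevisiae causes slow growth, and suppressors are detected by OD600. The parent strain without NS1 is used as positive control.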
SARS PLP yeast: inhibitors of SARS-CoV papain-like protease in yeast; S. cerevisiae expressing SARS-CoV PLpro, growth rescue; control for the full effect not named in the record; Potency, µM (titrated, usually from 32.9 µM), inactives show top-dose activity, positive = growth rescue; 0.19% of 330,000 active; AID 485353; also: 0% is about no effect; nearly all actives have a fitted effect of over 55% in size; growth read by luminescence after 48 h
Starred values were filed as active, the others as inactive; ? = inconclusive; . = not tested or not shown; [ ] = remark or other dose. Unless noted, calls follow the shape of the dose curve; as a rule, active means well fitted rising curve with a large enough effect; inconclusive means small, poorly fitted or top-dose-only effect; inactive means no such curve, though single readings can be large or run the other way. Potency is read from the fitted curve at half-maximal effect.

structure	MARV entry inh	Cruzain noTriton	RE007 growth inh	Cruzain inh Det	StopGo reporter	Lassa entry inh	NS1 function inh	SARS PLP yeast
CCOc1cc(C(=O)NC(C)CCc2ccccc2)cc(OCC)c1OCC (stereo not given)	.	.	8%	.	-27%	.	12%	0%
C=Cc1ccc2c(c1)OCCOCCOCCOCCOCCO2	3%[46.1 µM]	.	-13%	.	-6%	-4%[46.1 µM]	-19%	-12%
Cc1ccccc1C(=O)N1CCN(C(c2ccccc2)c2ccccc2)CC1	.	.	2%	.	0%	.	-5%	-4%
CCOC(=O)N1CCN(CCc2ccccc2)CC1	.	.	4%	.	1%	.	17%	1%
Cc1ccc(NC(=O)c2ccco2)c(NC(=O)C2CCCO2)c1 (stereo not given)	.	.	1%	.	2%	.	-4%	0%
CC1=C(C(=O)OC(C)C)C(c2ccccc2Cl)CC(=O)N1 (stereo not given)	?	8%	18%	-9.0%	?	7%	-4%	0%
O=C(CC(C(=O)O)c1ccc(Cl)cc1Cl)c1ccc(Cl)cc1 (stereo not given)	.	.	1%	.	-15%	.	-34%	-3%
Cc1cc(NC(=O)C2CCN(S(=O)(=O)c3cnc[nH]3)CC2)ccc1Br	?	7%	14%	-3.1%	-9%	-18%	-3%	2%

Whole records, looked up by structure. Screens in order: MARV entry inh, Cruzain noTriton, RE007 growth inh, Cruzain inh Det, StopGo reporter, Lassa entry inh, NS1 function inh, SARS PLP yeast
`Cc1ccc(NC(=O)c2ccco2)c(NC(=O)C2CCCO2)c1` (stereo not given) as listed: ., ., 1%, ., 2%, ., -4%, 0%
`C=Cc1ccc2c(c1)OCCOCCOCCOCCOCCO2` as listed: 3%[46.1 µM], ., -13%, ., -6%, -4%[46.1 µM], -19%, -12%
`O=C(CC(C(=O)O)c1ccc(Cl)cc1Cl)c1ccc(Cl)cc1` (stereo not given) as listed: ., ., 1%, ., -15%, ., -34%, -3%
`Cc1cc(NC(=O)C2CCN(S(=O)(=O)c3cnc[nH]3)CC2)ccc1Br` as listed: ?, 7%, 14%, -3.1%, -9%, -18%, -3%, 2%

(continued)
structure	MARV entry inh	Cruzain noTriton	RE007 growth inh	Cruzain inh Det	StopGo reporter	Lassa entry inh	NS1 function inh	SARS PLP yeast
COc1ccc(OC)c(S(=O)(=O)N2Cc3ccccc3CC2C(=O)O)c1 (stereo not given)	-12%	-4%	4%	3.3%	21%	20%	5%	4%
Cc1noc(C)c1CSc1nnc(-c2cccnc2)n1C1CCCCC1C (stereo not given)	24%	0%	9%	-0.6%	7%	1%	-5%	-2%
CCc1cc(C(=O)N2CCCC(C(=O)c3ccc(OC)c(F)c3)C2)n(C)n1 (stereo not given)	.	.	8%	.	-18%	.	4%	0%
O=C(NCCC1=CCCCC1)C1CCN(S(=O)(=O)c2ccccc2C(F)(F)F)CC1	-18%	.	6%	.	-4%	0%[46.1 µM]	.	2%
COc1cc(/C=C/C(=O)OCC(=O)Nc2sc3c(c2C#N)CCC(C)C3)ccc1OCC#N (stereo not given)	4%[46.1 µM]	.	-16%	.	15%	2%	1%	1%
COc1cc(/C=C2\C(=N)N3N=C(S(C)(=O)=O)SC3=NC2=O)ccc1OC(=O)c1ccco1	.	.	6%	.	-21%	.	13%	-2%
COC(=O)c1c(NC(=O)Cc2ccccc2)sc(C)c1C	7%	-9%	-17%	-8.0%	-14%	13%	-5%	-9%
CCCCCCP(=O)(O)c1ccccc1	13%	-3%	4%	0.1%	-11%	5%	6%	2%

The list goes on.
structure	MARV entry inh	Cruzain noTriton	RE007 growth inh	Cruzain inh Det	StopGo reporter	Lassa entry inh	NS1 function inh	SARS PLP yeast
Cc1nc(SCC(=O)NCCN2C(=O)CSC2=O)nc(C)c1C	?	.	1%	.	-11%	25%	.	9%
COc1ccc(C(=O)c2ccccc2)c(OCC(=O)N(C)C)c1	.	.	-21%	.	-4%	.	1%	0%
CCN(CC)S(=O)(=O)c1cccc(NC(=O)COC(=O)CCc2nc3ccccc3s2)c1	-10%	19%	-4%	-5.8%	-15%	-2%	-30%	-1%
CC(C)OC(=O)c1cccnc1SCc1cc(=O)n2ccccc2n1	-6%	3%	-5%	-1.3%	14%	-13%	-81%	-10%
Cc1ccccc1OCCC(=O)OCC(=O)NC(=O)c1ccccc1	2%	.	-13%	.	-15%	18%	.	-1%
NC(=O)C1CCN(C(=O)C(=O)c2cn(CC(=O)N3CCCCCC3)c3ccccc23)CC1	4%[46.1 µM]	.	0%	.	-5%	8%[46.1 µM]	-3%	10%
c1ccc(CN2CCOCCOCCOCCOCCOCCOCC2)cc1	-12%	.	4%	.	-3%	-1%	.	1%
Cc1cc(C)c(C(=O)COc2cccnc2[N+](=O)[O-])cc1C	5%	8%	-29%	-7.9%	?	-2%	-25%	3%

The results go on:
structure	MARV entry inh	Cruzain noTriton	RE007 growth inh	Cruzain inh Det	StopGo reporter	Lassa entry inh	NS1 function inh	SARS PLP yeast
Cc1ccc(CSCCC(=O)N2CCN(c3cc(C)ccc3C)CC2)cc1	.	7%	.	0.4%	?	-5%[46.1 µM]	.	.
Cc1cc(Cl)ccc1OCCCC(=O)NCCN1C(=O)S/C(=C\c2cccnc2)C1=O	?	?	-23%	-17%	?	3%	12%	3%
O=C(c1cccc([N+](=O)[O-])c1)N1CCN(C(=O)c2ccco2)CC1	14%[46.1 µM]	.	2%	.	4%	-16%	3%	-1%
Cc1ccc(C)c(S(=O)(=O)n2nc(C)c(S(=O)(=O)N3CCC(C)CC3)c2C)c1	.	7%	.	-0.2%	24%	-2%[46.1 µM]	.	.
N#Cc1ccc(OCC(=O)Nc2cccc(S(=O)(=O)NC3=NCCCCC3)c2)cc1	-15%	.	-10%	.	-18%	14%	.	-5%
COc1ccc(C2/C(=C(/O)c3ccc4c(c3)CC(C)O4)C(=O)C(=O)N2CCCN2CCOCC2)cc1 (stereo not given)	3%[46.1 µM]	.	-4%	.	0%	?	-3%	3%
CN1C2c3ccccc3C3C4c5ccccc5C(C31)C(C2[N+](=O)[O-])N4C (stereo not given)	.	.	5%	.	-1%	.	8%	1%
O=C(CS(=O)(=O)Cc1ccccc1)Nc1nc2c(s1)CCCC2	-3%	-5%	-2%	-5.5%	-14%	12%	-18%	0%

Next part
structure	MARV entry inh	Cruzain noTriton	RE007 growth inh	Cruzain inh Det	StopGo reporter	Lassa entry inh	NS1 function inh	SARS PLP yeast
CC(=O)n1cc([C@@H]2C=C(C(=O)N3CCN(Cc4ccc5c(c4)OCO5)CC3)O[C@H](OCc3ccc(CO)cc3)C2)c2ccccc21	.	.	-5%	.	?	.	2%	-1%
NS(=O)(=O)c1cc(C(=O)OCC(=O)NC2CCCCCCC2)ccc1Cl	8%	.	7%	.	7%	-1%	.	-4%
Cc1ccc(-c2nc3ccccc3n2C)o1	?	4%	40µM*	-2.2%	-4%	?	-120%	-29%
CN(C)C(=O)O/N=C(\N)COc1ccc(C(C)(C)C)cc1	.	.	-39%	.	-16%	.	-82%	-7%
NC(=O)c1nsnc1-c1ccccc1O	5%	-21%	25%	-0.1%	7%	6%	-64%	3%
COCCCN1C(=O)c2[nH]nc(-c3ccccc3O)c2C1c1ccc(OC)cc1 (stereo not given)	-46%[46.1 µM]	-17%	.	-4.7%	1%	?	.	.
CC(=O)N1c2ccccc2C(=O)C1N1CCN(c2cccc(Cl)c2)CC1 (stereo not given)	.	-15%	.	-3.1%	-14%	-12%[46.1 µM]	.	.
Cn1c(CNC(=O)CSc2n[nH]c(-c3ccccc3)n2)nc2ccccc21	.	2%	.	2.7%	1%	15%[46.1 µM]	.	.

Additional results follow.
structure	MARV entry inh	Cruzain noTriton	RE007 growth inh	Cruzain inh Det	StopGo reporter	Lassa entry inh	NS1 function inh	SARS PLP yeast
Cc1cccc(NC(=O)c2ccccc2-c2ccccc2)c1	-13%[46.1 µM]	.	0%	.	-18%	3%	-7%	-1%
Cc1oc(-c2ccccc2Cl)nc1CS(=O)(=O)CC(=O)NC1CCCC1	.	.	7%	.	-10%	.	-11%	-2%
O=C(NCCCN1CCOCC1)C1CCN(S(=O)(=O)c2cccc(C(F)(F)F)c2)CC1	27%	.	12%	.	4%	8%	.	7%
COc1cccc(NC(=O)CN(C)C(=O)c2c(-c3c(F)cccc3Cl)noc2C)c1	-30%	.	-11%	.	-21%	3%	.	-1%
COc1ccccc1/C=N/OCc1cc(C(C)=O)ccc1OC	?	.	5%	.	5%	9%	-13%	-3%
Cc1nn(Cc2cccc(C(=O)NC3CCCCC3)c2)c(C)c1Cl	?	3%	?	-2.3%	?	?	-39%	-3%
CC1CCN(S(=O)(=O)c2ccc3c(c2)c(=O)c(C(=O)NCc2cccs2)cn3C)CC1	-23%	?	6%	-5.3%	-14%	-28%	3%	12%
CC(NC(=O)c1cccc(NC(=O)c2nsc3ccccc23)c1)c1ccccc1 (stereo not given)	.	-27%	.	-2.6%	9%	?	.	.

Going on with the list.
structure	MARV entry inh	Cruzain noTriton	RE007 growth inh	Cruzain inh Det	StopGo reporter	Lassa entry inh	NS1 function inh	SARS PLP yeast
Cc1cc(C)c(C)c(S(=O)(=O)N[C@@H](C)C(=O)OCc2cc(=O)n3cc(Br)ccc3n2)c1C	-3%[46.1 µM]	.	7%	.	44%[activator]	15%[46.1 µM]	-38%	0%
COc1cccc(CNC(=O)CSCc2cnn(-c3ccccc3)c2-n2cccc2)c1OC	-30%	10%	10%	-1.4%	?	?	-3%	-5%
COC(=O)Nc1nc2ccc(Br)cc2s1	10%[46.1 µM]	.	-9%	.	29%	?	1%	1%
COc1ccc(OC)c2c(C)cc(N3CCCN(C)CC3)nc12	1%	-2%	-13%	-0.8%	-19%	16%	-9%	-1%
CC1Cc2ccccc2N1C(=O)CSCC(=O)O (stereo not given)	-1%	-16%	13%	-5.6%	1%	2%	8%	-7%
O=C(C1CCCN(Cc2nc(-c3ccc(Cl)cc3)no2)C1)N1CCOCC1 (stereo not given)	-19%[46.1 µM]	.	4%	.	?	-13%[46.1 µM]	0%	0%

Compounds were not picked by outcome, and some 4.7% of all compounds hit somewhere here.
